Mtb H37Rv – Mycobacterium tuberculosis H37Rv growth inhibition, cell based, confirmatory dose response (AID 1949); most inactive calls were filed without a number and no value below 0 was filed; one-dose inhibition, % at 10 µg/mL; IC50 in µg/mL for titrated hits; 100,000 tested, 1.6% active;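 active = confirmed in a dose series; inconclusive = about 50% or more but not retested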;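 also: bacteria grown 7 days with compound before Alamar blue readout; 0% = untreated bacteria and 100% = reference antibiotic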
* = called active by the depositor; i = inactive; ? = inconclusive. The list is partial. The share of hits here may be higher or lower than overall.

SMILES	Mtb H37Rv
O=S(=O)(Nc1ccc2c(c1)nc1n2CCN(Cc2ccccc2)C1)c1ccccc1	i
O=[N+]([O-])c1cccc(NC(=S)Nc2cc(C(F)(F)F)ccc2F)c1	19µg/mL*
CCOC(=O)C1=C(C)N=c2s/c(=C/C=C/c3ccccc3)c(=O)n2C1c1ccc(OC)c(OC)c1 (stereo unspecified)	i
CCS(=O)(=O)N1CCN(c2ccc(Cl)cc2)CC1	10%
C=CCn1c(SCC(=O)Nc2ccc(F)c(F)c2F)nnc1-c1ccccc1O	i
O=S(=O)(NCc1ccccc1)c1ccc(F)c(Cl)c1	2%
S=c1[nH]nc2n(Cc3ccccc3)c3ccccc3n12	i
Cc1[nH]n(-c2ccccc2)c(=O)c1C1(C(F)(F)F)C(=O)N(Cc2ccccc2Cl)C2=C1C(=O)CC(C)(C)C2 (stereo unspecified)	i
O=c1c2cccc3c2c(nn1Cc1ccccc1Cl)-c1ccccc1-3	2%
COc1ccc(NC(=O)c2cc(-c3ccccc3)oc2C)cc1	i
CC(NC(=S)NC(=O)c1ccccc1Br)c1ccccc1 (stereo unspecified)	0%
COc1ccc(CNC(=O)CSc2nc3ccc(NC(=O)c4ccccc4C)cc3s2)cc1	i
Cc1cccc(NC(=O)c2cc(C(F)(F)F)cc(C(F)(F)F)c2)n1	i
O=C1OCCC1Sc1nnc(-c2ccc(Br)cc2)o1 (stereo unspecified)	i
CCC(C)NCCCOc1ccc(C)cc1 (stereo unspecified)	i
CC(C)NC(=O)c1ccccc1NC(=O)c1ccc(Cl)cc1	i
COc1ccc2[nH]cc(CCNS(=O)(=O)Cc3ccccc3)c2c1	i
S=C(NCCc1ccccc1)N1CCN(c2ccccn2)CC1	2%
CCCCOc1ccc(C(=O)Nc2ccccc2CC)cc1	i
C=CCc1cccc(Cl)c1OCCCCN1CCN(CC)CC1	i
O=C(NC(c1ccccc1)c1ccccc1)c1ccc(Br)o1	1%
O=C(CCCCC(=O)NC1=NCCS1)NC1=NCCS1	2%
CSc1n[nH]c(NCc2ccc(C)cc2)n1	3%
COc1ccc(Cl)cc1NC(=O)CCN1C(=O)C2C3CCC(C3)C2C1=O (stereo unspecified)	i
CC(C)(C)c1ccc(OCC(=O)Nc2ccc3c(c2)OCCO3)cc1	7%
CCOC(=O)N1CCN(CC(O)COc2ccc(C3CCCCC3)cc2)CC1 (stereo unspecified)	3.7µg/mL*
CC(=O)c1cccc(NC(=S)NNC(=O)Cc2ccc(-c3ccccc3)cc2)c1	i
COc1ccc(NC(=S)N2CCN(C/C=C/c3ccccc3)CC2)c(OC)c1	i
COc1cc(CNCc2ccccc2)cc(Br)c1OCC(=O)NC(C)(C)C	i
O=C(O)CCCN1C(=O)c2cccc3cc([N+](=O)[O-])cc(c23)C1=O	0%
Cn1cccc1/C=C(/C#N)c1cccc(F)c1	i
Cc1ccc(N2C(=O)C(Cl)=C(NCCc3ccccc3)C2=O)c(C)c1	3%
Cc1ccc(C(=O)Nc2ccc(S(=O)(=O)N3CCCCC3)cc2)cc1C	i
Cc1cc(C)c2nc(C(F)(F)F)[nH]c(=O)c2c1	4%
Cc1ccc(S(=O)(=O)N(CC(=O)NC2CCCCCC2)Cc2ccc(F)cc2)cc1	i
Cc1c(NC(=O)c2cc(-c3cccnc3)nc3ccc(Cl)cc23)c(=O)n(-c2ccccc2)n1C	1%
Cc1ccc(C(=O)Nc2ccc3[nH]c(=O)[nH]c3c2)c(C)c1	i
COc1ccc(Br)cc1C(=O)NC(=S)NC12CC3CC(CC(C3)C1)C2	i
Cn1c(SCc2c(Cl)cccc2Cl)nnc1-c1cccc([N+](=O)[O-])c1	3%
N#Cc1cn(CC(=O)N2CCCC2)c2ccccc12	i
Cc1nc2ccc(C(=O)NCCC3=CCCCC3)cc2s1	i
Oc1cccc2ccc(/C=C/c3ccc(OC4CCCC4)cc3)nc12	i
COc1ccc([N+](=O)[O-])cc1NC(=O)COc1c(C)cc(Br)cc1C	i
COc1ccc(C(=O)c2c(C)oc3ccc(O)c(CN4CCOCC4)c23)cc1	i
O=C(Nc1ccc2nc(-c3ccco3)c(-c3ccco3)nc2c1)N1CCN(c2ccccc2)CC1	i
N#CC1(c2ccccc2)CCN(C2CC(=O)N(c3ccc(F)c(Cl)c3)C2=O)CC1 (stereo unspecified)	i
CC1CC(C)CN(S(=O)(=O)c2ccc(NC(=S)NC(=O)c3ccco3)cc2)C1 (stereo unspecified)	i
CS(=O)(=O)N(CC(=O)NC1CCCC1)Cc1ccc(Cl)cc1	i
CC1=C(C(=O)Nc2ccccc2)C(c2cccs2)C(C#N)=C(SCC(=O)NC2CC2)N1 (stereo unspecified)	i
COc1ccc(NC(=S)Nn2cnnc2)cc1OC	i
COc1ccc(C)cc1S(=O)(=O)N(C)CC(=O)N1CCCCCC1	2%
C=CCN1C(=O)C(O)(CC(=O)c2ccc3c4c(cccc24)CC3)c2ccccc21 (stereo unspecified)	15%
COc1ccc(C(=O)N2CCN(c3ccc(Cl)c(Cl)c3)CC2)cc1OC	i
CS(=O)(=O)N1CCc2cc(S(=O)(=O)Nc3ccc(F)c(Cl)c3)ccc21	i
N/C(=N\S(=O)(=O)c1ccc(F)cc1F)c1ccccc1	i
CCOC(=O)c1[nH]cnc1C(=O)Nc1ccc(F)cc1	i
CCOc1ccc(C(=O)CCC(=O)OCC(=O)c2ccc3c(c2)OCCO3)cc1	i
O=C(COc1ccc(C(=O)Nc2ccc(F)cc2)cc1)Nc1ccccc1C(F)(F)F	i
CCOc1cc(C2CC(=O)Nc3ccc4ccccc4c32)c(Cl)cc1OCC(N)=O (stereo unspecified)	i
O=C(Nc1c(C(=O)N2CCCCCC2)cnn1-c1ccccc1)c1ccccc1	i

17 successive entries out of the list so far, quoted:
SMILES	Mtb H37Rv
COc1ccc(C(=O)c2c(C)oc3ccc(O)c(CN4CCOCC4)c23)cc1	i
O=C(Nc1ccc2nc(-c3ccco3)c(-c3ccco3)nc2c1)N1CCN(c2ccccc2)CC1	i
N#CC1(c2ccccc2)CCN(C2CC(=O)N(c3ccc(F)c(Cl)c3)C2=O)CC1 (stereo unspecified)	i
CC1CC(C)CN(S(=O)(=O)c2ccc(NC(=S)NC(=O)c3ccco3)cc2)C1 (stereo unspecified)	i
CS(=O)(=O)N(CC(=O)NC1CCCC1)Cc1ccc(Cl)cc1	i
CC1=C(C(=O)Nc2ccccc2)C(c2cccs2)C(C#N)=C(SCC(=O)NC2CC2)N1 (stereo unspecified)	i
COc1ccc(NC(=S)Nn2cnnc2)cc1OC	i
COc1ccc(C)cc1S(=O)(=O)N(C)CC(=O)N1CCCCCC1	2%
C=CCN1C(=O)C(O)(CC(=O)c2ccc3c4c(cccc24)CC3)c2ccccc21 (stereo unspecified)	15%
COc1ccc(C(=O)N2CCN(c3ccc(Cl)c(Cl)c3)CC2)cc1OC	i
CS(=O)(=O)N1CCc2cc(S(=O)(=O)Nc3ccc(F)c(Cl)c3)ccc21	i
N/C(=N\S(=O)(=O)c1ccc(F)cc1F)c1ccccc1	i
CCOC(=O)c1[nH]cnc1C(=O)Nc1ccc(F)cc1	i
CCOc1ccc(C(=O)CCC(=O)OCC(=O)c2ccc3c(c2)OCCO3)cc1	i
O=C(COc1ccc(C(=O)Nc2ccc(F)cc2)cc1)Nc1ccccc1C(F)(F)F	i
CCOc1cc(C2CC(=O)Nc3ccc4ccccc4c32)c(Cl)cc1OCC(N)=O (stereo unspecified)	i
O=C(Nc1c(C(=O)N2CCCCCC2)cnn1-c1ccccc1)c1ccccc1	i

Continued:
SMILES	Mtb H37Rv
CCOC(=O)/C=C/COc1ccc2oc(C)c(C(=O)OC)c2c1	2%
CCOC(=O)CSc1nc2c(cc1C#N)CCCC2	i
COCCNC(=S)NNC(=O)Cc1c(Cl)cccc1Cl	i
Cc1ccc(NC(=O)c2cccc(NS(=O)(=O)c3ccc(C)cc3)c2)cc1	i
CSc1sc(SC)c(CO)c1CO	4%
COc1cc(C=O)cc(Br)c1OC	0%
Cc1cc(C(=O)O/N=C(\N)c2ccncc2)ccc1[N+](=O)[O-]	3%
CC1CN(C(=O)CCCc2ccccc2)CC(C)O1 (stereo unspecified)	i
O=C(O)c1cc(NS(=O)(=O)c2cc(Cl)ccc2Cl)ccc1O	i
CC1=C(C(=O)Nc2ccc(F)cc2)C(c2ccco2)NC(=O)N1 (stereo unspecified)	i
CCNC(=O)c1cc(-c2ccc(C)s2)nc2ccccc12	i
Cc1ccc(S(=O)(=O)Nn2c(C)ccc2C)cc1	1%
O=C(CC1SC(=Nc2ccc(O)cc2)NC1=O)c1ccccc1 (stereo unspecified)	i
COC(=O)Nc1c(C)n(C)n(-c2ccccc2)c1=O	i
O=C(Nc1ccc(Cl)cn1)C1CCCO1 (stereo unspecified)	i
O=C(CSc1nnc(COc2ccccc2)n1-c1ccccc1)NC1CCCCC1	i
O=c1ccc2cc(S(=O)(=O)N3CCN(c4ccccc4)CC3)ccc2o1	i
COc1ccccc1CN1CCN(Cc2ccc(Cl)cc2)CC1	1%
CNC(=O)C(=O)NCCN1CCN(Cc2ccc(Cl)cc2Cl)CC1	i
COC(=O)c1c(NC(=O)CN(c2cccc(Br)c2)S(C)(=O)=O)sc2c1CCCC2	13%
O=C(O)c1cccc(CSc2nnc(-c3ccco3)o2)c1	i
COC(=O)c1cccc(COC(=O)c2ccccc2NC(=O)c2ccco2)c1	i
CCOc1ccccc1NC(=O)c1cc(CC(C)C)oc1C	i
Cc1cc(C)cc(C(=O)NC(=S)Nc2cccc(C(F)(F)F)c2)c1	i
CCOc1ccc(NC(=O)CSc2nc3ccc([N+](=O)[O-])cc3s2)cc1	2µg/mL*
O=c1[nH]c2ccc(Cl)cc2c(-c2ccccc2)c1N1CCN(CCO)CC1	i
CCc1ccc(S(=O)(=O)N(C)Cc2ccccc2)cc1	i
Cc1cccc(NC(=O)c2ccc(OCC(=O)Nc3cccc(C(F)(F)F)c3)cc2)c1C	i
CCc1c(C)c2ccc(OCC(=O)Nc3ccc([N+](=O)[O-])cc3)cc2oc1=O	i
Cn1c(Cc2ccccc2)nnc1SCC(=O)Nc1cccc(Cl)c1	i
Cc1cc(OCC(=O)NCc2ccc3c(c2)OCO3)cc(C)c1Br	i
Cc1ccc(C(=O)CCC(=O)Nc2cccc(C)c2)cc1	i
NC1=NS(=O)(=O)NC1c1ccc(Cl)cc1 (stereo unspecified)	i
O=C(Cn1cc(C(=O)c2ccccc2)c2ccccc21)NCc1ccco1	i
COC(=O)c1ccc2ccn(CC(=O)NC(C)C)c2c1	i
Cc1cc(C(F)(F)F)n2nc(C(=O)Nc3cc(Br)ccc3O)cc2n1	i
CC(C)CNC(=O)CCSc1ccccc1	i
CCCCC(Sc1nc(O)c(Cc2ccccc2)c(=O)[nH]1)C(=O)O (stereo unspecified)	i
O=C(Nc1cccc(OC(F)F)c1)c1ccccc1	i
CN(C)c1nc(N(C)C)nc(N(C)C)n1	i
COc1ccc(C)cc1NC(=O)C1CCN(C(=O)c2ccc(C(C)(C)C)cc2)CC1	4%
CCN(c1ccccc1)S(=O)(=O)c1ccc(NC(=O)COc2ccc(Cl)cc2Cl)cc1	i
Cn1c(SCC(=O)Nc2cc(=O)n(C)c(=O)n2C)nnc1-c1ccccc1Br	i
Cc1cc(=O)oc2cc(OCc3ccccc3Br)ccc12	i
CCOC(=O)c1sc2ncn(Cc3ccc(F)cc3)c(=O)c2c1C	4%
Cc1ccc(/C(N)=N/OC(=O)c2ccc(Cl)cc2)cc1	41%
COc1ccc(-c2nnc(SCC(=O)Nc3nc(-c4ccc(Cl)cc4)cs3)n2C)cc1	i
COC(=O)C1=C(C)NC2=C(C(=O)CC(c3ccco3)C2)C1c1cccc(OC)c1 (stereo unspecified)	i
CN1CCN(C2CCN(C(=O)c3cccs3)CC2)CC1	1%
Cc1ccc2oc(-c3cc(NC(=O)Cn4cnc5c(=O)n(C)c(=O)n(C)c54)ccc3O)nc2c1	2%
CN(C)CCOCCSc1ccc(Cl)cc1	i
CCOc1ccc(CCNC(=O)c2ccccc2NC(=O)C(C)(C)C)cc1OCC	i
CCOC(=O)N1CCN(C(=O)c2ccc(CSc3ccc(Cl)cc3)cc2)CC1	i
CCN(CC)CCOc1ccc(OC)cc1	i
CNCCOc1ccc(Cl)c(Cl)c1	i
O=C(CCc1c[nH]c2ccccc12)OCc1nnc(-c2ccccc2)o1	?
CCCC(=O)Nc1ccc(NC(=O)c2cc(C)cc(C)c2)cc1	i
O=C(CCSc1ccccc1)N1CCN(c2cccc(Cl)c2)CC1	i
COCCn1c(Cc2ccccc2)nnc1SCC(=O)Nc1ccc(F)c(Cl)c1	i
COc1cc(Cl)cc(C2NC(=O)NC(C)=C2C(C)=O)c1OCc1ccccc1 (stereo unspecified)	i

Additional results:
SMILES	Mtb H37Rv
Cc1cc(CNC(=O)c2cc3ccccc3oc2=O)nn1C	3%
Cn1c(-c2nonc2NC(=O)c2cccs2)nc2ccccc21	i
COc1cccc(OC)c1OCCCOc1c(Cl)cccc1Cl	3%
O=C(Nc1cccc(-c2cn3ccsc3n2)c1)c1cccc(I)c1	34%
Cc1sc2ncnc(NC3CCCC3)c2c1C	i
Cc1ccc(CN(CC(=O)NC(C)C)S(=O)(=O)c2ccccc2)cc1	2%
Cc1ccc(SCc2ccc(C(=O)N3CCCCC3)cc2)cc1	i
CCCC(=O)Nc1ccc(C(=O)Nc2cc(C(=O)OC)cc(C(=O)OC)c2)cc1	i
CC(=O)Nc1ccc(NC(=O)C(C)Oc2ccc(Cl)c(C)c2)cc1 (stereo unspecified)	i
O=C1CC(N2CCC(O)CC2)C(=O)N1c1ccc(F)cc1 (stereo unspecified)	i
CCOC(=O)c1sc(NC(=O)c2ccc(Br)o2)nc1C	i
O=C(COc1ccc(S(=O)(=O)NC2CCCCC2)cc1)NC1CCCC1	i
N#Cc1cc2c(=O)n3ccccc3nc2n(CC2CCCO2)c1=NC(=O)c1ccc(F)cc1 (stereo unspecified)	i
Cc1cc(C)n(C(=O)c2ccc(C)c(S(=O)(=O)N3CCCC3)c2)n1	i
COc1ccc(-n2c(C)c([N+](=O)[O-])c3ccc(OC(C)=O)c(COC(C)=O)c32)cc1	21%
CC(=O)NC(=S)NNC(=O)c1ccc(C)c(Br)c1	1.8µg/mL*
O=C(Nc1ccc(Br)cc1)c1cccc(Oc2ccccc2)c1	2%
